UUG fidelity – modulators of start codon recognition fidelity in yeast | AID 602363 | 350,000 compounds, 0.13% hits | S. cerevisiae UUG-firefly luciferase reporter, luminescence/redox ratio | activity score, % at 18.7 µM;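 active = replicate mean at a twofold rise or more, about +100% in these data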;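 note: firefly luciferase made from a UUG start codon reports start codon fidelity; reporter light over untreated wells divided by growth signal over untreated wells; some hits fall short of that in this replicate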
Env fusion inh – HIV envelope-mediated fusion inhibition; inhibition, % at 12.3 µM; 360,000 compounds, 1.1% hits; HeLa-JRFL Env/CEM21 cell fusion, luciferase;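 active = mean replicate inhibition score of at least 50 and every replicate individually at or above 50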;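 note: 0% = plate neutral controls and 100% = maraviroc near 300 nM; one replicate is shown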
* marks the source's active call; other numbers are inactive results; [ ] = another dose, or the depositor's remark.

Start of the data: the first five entries as a preview:
SMILES | UUG fidelity | Env fusion inh
C[C@@H]1CN([C@@H](C)CO)C(=O)c2cc(-c3ccncc3)cnc2O[C@@H]1CN(C)C(=O)C1CCOCC1 | 7.7 | -1.5[16.7 µM]
CCCC#Cc1ccc2c(c1)O[C@H](CN(C)Cc1cccnc1)[C@H](C)CN([C@H](C)CO)S2(=O)=O | 5.8 | 2.3[16.7 µM]
COc1ccc(NC(=O)N(C)C[C@H]2Oc3ncc(-c4cccnc4)cc3C(=O)N([C@H](C)CO)C[C@H]2C)cc1 | 14.7 | 10.9[16.7 µM]
C[C@@H]1CN([C@@H](C)CO)C(=O)c2cc(NC(=O)CCCN(C)C)ccc2O[C@@H]1CN(C)Cc1ccc(C(F)(F)F)cc1 | -0.6 | -16.2[16.7 µM]
O=C(C[C@@H]1CC[C@@H](NC(=O)Nc2cc(F)ccc2F)[C@H](CO)O1)NCc1ccc2c(c1)OCO2 | 33.5 | 10.5[16.7 µM]

The listing, previewed entries included:
SMILES | UUG fidelity | Env fusion inh
C[C@@H]1CN([C@@H](C)CO)C(=O)c2cc(-c3ccncc3)cnc2O[C@@H]1CN(C)C(=O)C1CCOCC1 | 7.7 | -1.5[16.7 µM]
CCCC#Cc1ccc2c(c1)O[C@H](CN(C)Cc1cccnc1)[C@H](C)CN([C@H](C)CO)S2(=O)=O | 5.8 | 2.3[16.7 µM]
COc1ccc(NC(=O)N(C)C[C@H]2Oc3ncc(-c4cccnc4)cc3C(=O)N([C@H](C)CO)C[C@H]2C)cc1 | 14.7 | 10.9[16.7 µM]
C[C@@H]1CN([C@@H](C)CO)C(=O)c2cc(NC(=O)CCCN(C)C)ccc2O[C@@H]1CN(C)Cc1ccc(C(F)(F)F)cc1 | -0.6 | -16.2[16.7 µM]
O=C(C[C@@H]1CC[C@@H](NC(=O)Nc2cc(F)ccc2F)[C@H](CO)O1)NCc1ccc2c(c1)OCO2 | 33.5 | 10.5[16.7 µM]
C[C@@H]1CN([C@@H](C)CO)C(=O)Cc2cc(NC(=O)Nc3ccccc3)ccc2O[C@H]1CN(C)C | 8.3 | 1.2[16.7 µM]
O=C(C[C@H]1CC[C@@H](NC(=O)CN2CCOCC2)[C@H](CO)O1)NCCc1ccccc1 | -5.6 | 11.5[16.7 µM]
COc1ccc(-c2cnc3c(c2)C(=O)N([C@@H](C)CO)C[C@H](C)[C@@H](CN(C)Cc2ccc(C(=O)O)cc2)O3)cc1 | 1.0 | 1.5[16.7 µM]
CC(=O)N(C)C[C@@H]1Oc2cc(C#CC3CCCCC3)ccc2S(=O)(=O)N([C@H](C)CO)C[C@H]1C | 25.9 | 26.8[16.7 µM]
C[C@H]1CN([C@@H](C)CO)C(=O)c2cccc(NS(=O)(=O)c3ccccc3)c2O[C@@H]1CN(C)C(=O)Nc1ccccc1 | -2.8 | 7.0[16.7 µM]
C[C@@H]1CN([C@@H](C)CO)C(=O)c2cc(C#CCN(C)C)cnc2O[C@@H]1CN(C)C(=O)c1ccc2c(c1)OCO2 | 0.1 | -5.1[16.7 µM]
C[C@H]1CN([C@@H](C)CO)C(=O)c2cccc(NC(=O)Nc3ccc(C(F)(F)F)cc3)c2O[C@@H]1CN(C)C(=O)Nc1cccc2ccccc12 | -6.9 | 14.4[16.7 µM]
COc1cccc(-c2cnc3c(c2)C(=O)N([C@@H](C)CO)C[C@H](C)[C@@H](CN(C)Cc2ccc(F)cc2)O3)c1 | 7.4 | 11.6[16.7 µM]
CC(C)NC(=O)N(C)C[C@@H]1Oc2c(NC(=O)Nc3ccc4c(c3)OCO4)cccc2C(=O)N([C@H](C)CO)C[C@H]1C | 3.6 | -0.1[16.7 µM]
Cc1noc(C)c1S(=O)(=O)Nc1ccc2c(c1)C(=O)N([C@H](C)CO)C[C@H](C)[C@H](CN(C)C(=O)Nc1ccc3c(c1)OCO3)OCCCC[C@H](C)O2 | 1.6 | -41.5[16.7 µM]
COc1ccc(S(=O)(=O)Nc2ccc3c(c2)C(=O)N([C@H](C)CO)C[C@@H](C)[C@@H](CN(C)C(=O)c2ccccc2)OCCCC[C@H](C)O3)cc1 | 12.3 | 17.7[16.7 µM]
COCC(=O)N(C)C[C@H]1Oc2ncc(C#CCC3CCCC3)cc2C(=O)N([C@H](C)CO)C[C@@H]1C | 25.5 | 11.6[16.7 µM]
C[C@@H]1CN([C@H](C)CO)C(=O)Cc2cc(NC(=O)CCCCCC(=O)Nc3ccccc3N)ccc2O[C@@H]1CN(C)S(=O)(=O)c1ccccc1 | -3.2 | -17.0[16.7 µM]
Cc1noc(C)c1NC(=O)Nc1ccc2c(c1)CC(=O)N([C@H](C)CO)C[C@@H](C)[C@H](CN(C)C(=O)Nc1ccc(F)cc1)O2 | 11.8 | -19.0[16.7 µM]
C[C@@H]1CCCCO[C@@H](CN(C)S(=O)(=O)c2ccccc2)[C@@H](C)CN([C@@H](C)CO)C(=O)c2cc(NS(C)(=O)=O)ccc2O1 | 8.2 | 3.9[16.7 µM]
Cc1ccc(-c2cnc3c(c2)C(=O)N([C@H](C)CO)C[C@@H](C)[C@H](CN(C)C(=O)c2ccccc2)O3)cc1 | 7.9 | 3.0[16.7 µM]
Cc1noc(C)c1NC(=O)N(C)C[C@H]1OCCCC[C@H](C)Oc2ccc(NS(=O)(=O)c3ccc(F)cc3)cc2C(=O)N([C@H](C)CO)C[C@@H]1C | 4.0 | 4.7[16.7 µM]
O=C(C[C@H]1CC[C@H](NC(=O)c2ccncc2)[C@H](CO)O1)NCC1CC1 | -3.3 | -6.6[16.7 µM]
C[C@H]1CN([C@@H](C)CO)S(=O)(=O)c2ccc(C#CCN(C)C)cc2O[C@@H]1CN(C)Cc1ccc2c(c1)OCO2 | 11.8 | -36.2[16.7 µM]
CC(C)NC(=O)N(C)C[C@H]1Oc2ccc(NC(=O)c3ccncc3)cc2C(=O)N([C@H](C)CO)C[C@H]1C | -5.0 | 8.7[16.7 µM]
C[C@@H]1CCCCO[C@@H](CN(C)Cc2ccccc2)[C@H](C)CN([C@@H](C)CO)C(=O)c2cc(NC(=O)C3CCCCC3)ccc2O1 | 17.8 | 1.3[16.7 µM]
C[C@@H]1CN([C@@H](C)CO)C(=O)Cc2cc(NC(=O)C3CC3)ccc2O[C@@H]1CN(C)S(=O)(=O)c1cn(C)cn1 | -13.6 | -14.7[16.7 µM]
CCCN(C)C[C@@H]1OCCCC[C@H](C)Oc2ccc(NC(=O)CCC(F)(F)F)cc2C(=O)N([C@@H](C)CO)C[C@@H]1C | 11.4 | 2.3[16.7 µM]
COc1ccc(CN(C)C[C@H]2OCCCC[C@@H](C)Oc3ccc(NS(=O)(=O)c4ccc(Cl)cc4)cc3C(=O)N([C@@H](C)CO)C[C@H]2C)cc1 | -0.1 | 12.8[16.7 µM]
CN1CCN(C(=O)C[C@H]2CC[C@@H](NS(=O)(=O)c3cccc(F)c3)[C@@H](CO)O2)CC1 | -11.9 | -15.2[16.7 µM]
Cc1ccc(S(=O)(=O)Nc2ccc3c(c2)C(=O)N([C@H](C)CO)C[C@H](C)[C@H](CN(C)C(=O)Nc2c(C)noc2C)OCCCC[C@H](C)O3)cc1 | -0.3 | -4.4[16.7 µM]
C[C@@H]1CN([C@H](C)CO)S(=O)(=O)c2ccc(C#CC3CCCCC3)cc2O[C@@H]1CN(C)Cc1cccnc1 | 7.0 | 5.5[16.7 µM]
C[C@H](CO)N1C[C@H](C)[C@@H](CN(C)CC2CC2)Oc2ccc(NC(=O)CCCN(C)C)cc2CC1=O | -18.1 | 6.9[16.7 µM]
COc1ccc(S(=O)(=O)N(C)C[C@@H]2OCCCC[C@H](C)Oc3ccc(NC(=O)Nc4c(C)noc4C)cc3C(=O)N([C@H](C)CO)C[C@@H]2C)cc1 | 14.4 | -12.0[16.7 µM]
COc1ccc(CN(C)C[C@@H]2OCCCC[C@H](C)Oc3ccc(NC(=O)Nc4c(C)noc4C)cc3C(=O)N([C@@H](C)CO)C[C@@H]2C)cc1 | 6.5 | -17.5[16.7 µM]
O=C(C[C@H]1CC[C@H]2[C@@H](COC[C@@H](O)CN2C(=O)c2ccncc2)O1)NCc1cccc(F)c1 | -14.4 | 10.0[16.7 µM]
C[C@H]1CN([C@@H](C)CO)C(=O)c2cccc(NC(=O)Nc3ccc(F)cc3)c2O[C@@H]1CN(C)C(=O)Nc1cccc2ccccc12 | -7.7 | -11.1[16.7 µM]
C[C@@H]1CCCCO[C@H](CN(C)C(=O)Nc2ccc(F)cc2)[C@H](C)CN([C@@H](C)CO)C(=O)c2cc(NS(=O)(=O)c3ccc(Cl)cc3)ccc2O1 | 8.6 | -89.5[16.7 µM]
O=C(Nc1ccc(Cl)c(Cl)c1)N[C@H]1CC[C@H](CCn2cc(C3CCCCC3)nn2)O[C@H]1CO | 7.9 | 2.0[16.7 µM]
C[C@@H]1CN([C@@H](C)CO)C(=O)c2cccc(NC(=O)C3CC3)c2O[C@H]1CN(C)Cc1ccc2c(c1)OCO2 | 9.4 | -24.6[16.7 µM]
CCS(=O)(=O)N1[C@H](C#N)[C@H](c2ccc(C#CC(C)C)cc2)[C@@H]1CO | -7.9 | -7.4[16.7 µM]
C[C@H]1CN([C@@H](C)CO)C(=O)c2cc(NC(=O)Nc3cccc4ccccc34)ccc2O[C@H]1CN(C)Cc1ccc(Cl)c(Cl)c1 | -2.8 | 11.4[16.7 µM]
C[C@@H]1CCCCO[C@H](CN(C)C(=O)Nc2ccccc2)[C@@H](C)CN([C@@H](C)CO)C(=O)c2cc(NC(=O)C3CCCCC3)ccc2O1 | -10.1 | -67.2[16.7 µM]
C[C@@H]1CN([C@H](C)CO)S(=O)(=O)c2ccc(C#CC3CC3)cc2O[C@@H]1CN(C)Cc1cccc(F)c1 | 1.1 | 22.4[16.7 µM]
C[C@@H]1CN([C@@H](C)CO)C(=O)c2cc(NS(=O)(=O)c3ccc(Cl)cc3)ccc2O[C@@H](C)CCCCO[C@H]1CN(C)Cc1ccc(C(=O)O)cc1 | 3.9 | -20.2[16.7 µM]
O=C(C[C@H]1C=C[C@@H](NC(=O)c2ccccc2)[C@H](CO)O1)NCCc1ccncc1 | -10.2 | 0.4[16.7 µM]
COc1ccc(S(=O)(=O)N(C)C[C@@H]2Oc3c(NC(=O)Nc4cccc5ccccc45)cccc3C(=O)N([C@H](C)CO)C[C@@H]2C)cc1 | -4.3 | 8.6[16.7 µM]
CCNC(=O)C[C@@H]1C=C[C@@H](NC(=O)C2CC2)[C@@H](CO)O1 | -6.8 | -6.3[16.7 µM]
CC(=O)NCCCC[C@@H]1NC(=O)[C@H]2C[C@@H](C(=O)NCCCCCCNC(=O)CS)[C@@H](c3ccc(O)cc3)N2C1=O | 15.9 | -5.1[16.7 µM]
Cc1noc(C)c1S(=O)(=O)N(C)C[C@@H]1OCCCC[C@H](C)Oc2ccc(NC(=O)c3ccccc3)cc2C(=O)N([C@H](C)CO)C[C@H]1C | -2.3 | 1.5[16.7 µM]

(more compounds)
SMILES | UUG fidelity | Env fusion inh
O=C(C[C@H]1CC[C@H](NC(=O)c2cccnc2)[C@@H](CO)O1)NCc1ccc(Cl)c(Cl)c1 | 16.4 | -4.7[16.7 µM]
C[C@@H]1CN([C@@H](C)CO)C(=O)c2cc(C3=CCCCC3)cnc2O[C@@H]1CN(C)C(=O)C1CCOCC1 | -8.0 | 17.7[16.7 µM]
C[C@@H]1CCCCO[C@H](CN(C)Cc2ccc(Cl)c(Cl)c2)[C@@H](C)CN([C@H](C)CO)C(=O)c2cc(NS(=O)(=O)c3ccccc3)ccc2O1 | -10.9 | 3.2[16.7 µM]
C[C@@H]1CN([C@@H](C)CO)C(=O)c2cc(NC(=O)C3CC3)ccc2O[C@H]1CN(C)S(=O)(=O)c1ccc(F)cc1 | 6.6 | 0.0[16.7 µM]
CN(C)Cc1cn(CC[C@@H]2CC[C@H](NC(=O)Nc3ccc4c(c3)OCO4)[C@H](CO)O2)nn1 | -11.3 | -4.0[16.7 µM]
C[C@@H]1CN([C@H](C)CO)C(=O)c2cccc(NS(=O)(=O)c3cn(C)cn3)c2O[C@@H]1CN(C)Cc1ccc(C(F)(F)F)cc1 | 7.4 | 15.4[16.7 µM]
COCC(=O)Nc1ccc2c(c1)[C@H]1C[C@@H](CC(=O)NCc3ccccn3)O[C@@H](CO)[C@H]1O2 | -17.8 | 10.8[16.7 µM]
CCC(=O)N1C[C@@H](O)COC[C@@H]2O[C@@H](CC(=O)N3CCCCC3)CC[C@H]21 | -2.3 | -7.1[16.7 µM]
C[C@@H]1CN([C@H](C)CO)C(=O)c2cc(NC(=O)c3ccncc3)ccc2O[C@H]1CN(C)C(=O)Nc1ccc(C(F)(F)F)cc1 | -1.1 | 42.4[16.7 µM]
C[C@@H]1CCCCO[C@@H](CN(C)Cc2ccc(Cl)c(Cl)c2)[C@H](C)CN([C@@H](C)CO)C(=O)c2cc(NS(=O)(=O)c3ccc(F)cc3)ccc2O1 | 4.5 | 12.5[16.7 µM]
C[C@@H]1CN([C@@H](C)CO)C(=O)c2cccc(NS(=O)(=O)c3ccc(F)cc3)c2O[C@@H]1CN(C)S(=O)(=O)c1ccc(F)cc1 | 8.3 | 13.0[16.7 µM]
Cc1noc(C)c1S(=O)(=O)Nc1ccc2c(c1)C(=O)N([C@@H](C)CO)C[C@@H](C)[C@H](CN(C)S(=O)(=O)c1ccc(F)cc1)OCCCC[C@H](C)O2 | 29.3 | 14.3[16.7 µM]
COc1ccccc1S(=O)(=O)N[C@H]1CC[C@@H](CCn2cc(C3CC3)nn2)O[C@H]1CO | 5.0 | 5.3[16.7 µM]
COc1ccc(S(=O)(=O)Nc2ccc3c(c2)C(=O)N([C@@H](C)CO)C[C@@H](C)[C@@H](CN(C)CC2CC2)O3)cc1 | 4.7 | 10.7[16.7 µM]
N#C[C@H]1[C@H](c2ccc(C#Cc3ccccc3F)cc2)[C@H](CO)N1C(=O)C1CCC1 | 11.4 | -1.1[16.7 µM]

Source: PubChem (Broad Institute)

Only part of the results is shown; count on the stated rates, not on these rows.
